Screening data (PubChem BioAssay)
KCNQ2 enhance – enhances the rat KCNQ2 potassium channel | O88943 | CHO-K1 KCNQ2, FluxOR thallium flux fluorescence; stronger effect = higher value | B-score at 10 µM | 310,000 tested, 0.54% active;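 active = fluorescence ratio B-score at least 3 SD of library B-scores, with initial fluorescence B-score within 3 SD, cut at about 5.3 in these data; same plate scores as AID 2156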;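 also: B-score of peak minus minimum over baseline fluorescence ratio after K+ and Tl+ stimulus; positive B-score means potentiation of KCNQ2 with more thallium influx and brighter signal; only the inactives scoring about 0 or higher are listed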
Target sequence (O88943 whole entry, looked up): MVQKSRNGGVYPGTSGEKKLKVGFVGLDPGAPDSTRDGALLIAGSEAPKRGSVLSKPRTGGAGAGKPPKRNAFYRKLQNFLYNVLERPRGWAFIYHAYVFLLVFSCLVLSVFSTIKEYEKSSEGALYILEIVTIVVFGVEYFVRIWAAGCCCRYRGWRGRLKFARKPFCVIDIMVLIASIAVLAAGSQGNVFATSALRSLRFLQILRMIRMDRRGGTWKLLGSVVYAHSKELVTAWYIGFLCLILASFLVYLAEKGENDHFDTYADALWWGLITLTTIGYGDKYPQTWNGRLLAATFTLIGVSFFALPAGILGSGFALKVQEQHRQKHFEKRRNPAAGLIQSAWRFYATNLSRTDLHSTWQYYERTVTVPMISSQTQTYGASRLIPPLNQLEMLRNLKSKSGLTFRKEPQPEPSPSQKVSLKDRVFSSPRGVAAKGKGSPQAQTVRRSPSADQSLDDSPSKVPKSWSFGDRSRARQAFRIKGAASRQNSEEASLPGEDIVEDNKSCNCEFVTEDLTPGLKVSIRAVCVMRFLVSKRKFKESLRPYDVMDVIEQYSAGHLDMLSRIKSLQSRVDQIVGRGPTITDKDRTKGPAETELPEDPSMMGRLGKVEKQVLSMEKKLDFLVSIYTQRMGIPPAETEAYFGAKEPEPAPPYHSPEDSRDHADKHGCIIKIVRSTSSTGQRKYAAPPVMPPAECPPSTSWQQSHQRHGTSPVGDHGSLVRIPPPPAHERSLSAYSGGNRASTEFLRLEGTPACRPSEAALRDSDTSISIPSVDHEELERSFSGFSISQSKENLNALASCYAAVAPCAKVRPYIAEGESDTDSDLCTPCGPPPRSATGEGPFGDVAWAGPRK
KCNQ2 enhance baseline – further read-out of KCNQ2 enhance, marked with its call; B-score; compound at 10 µM; measured here: initial fluorescence intensity artifact check;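 brightness before thallium and not channel activity; 0 = typical well and far values either way flag optical interference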
* = called active by the depositor. An excerpt (hit frequency here may not be typical).

Preview:
structure	KCNQ2 enhance	KCNQ2 enhance baseline
COc1ccc(CNC(=O)c2sccc2-c2ccccc2)cc1OC	2.2	0.62
O=c1cc(-c2ccccc2)nc2cc(-c3ccc(Br)cc3)[nH]n12	2	1.1

Results, from the first entry:
structure	KCNQ2 enhance	KCNQ2 enhance baseline
COc1ccc(CNC(=O)c2sccc2-c2ccccc2)cc1OC	2.2	0.62
O=c1cc(-c2ccccc2)nc2cc(-c3ccc(Br)cc3)[nH]n12	2	1.1
Cn1cc(C(=O)c2ccc(Cl)cc2Cl)cc1C(=O)N/N=C(\N)COc1ccc(Cl)cc1	1.3	-1.1
CSCCC(Nc1ncnc2ccc(Br)cc12)C(=O)O (stereo not given)	0.97	-0.51
COc1ccc(C2c3cc(OC)c(OC)cc3CCN2C(=O)c2cccc([N+](=O)[O-])c2)cc1OC (stereo not given)	0.64	1.8
C/C=C/C(=O)Nc1cccc(C(F)(F)F)c1	2.1	2.5
CN(CC(=O)Nc1ccccc1Cl)C(=O)COC(=O)/C=C/c1ccc(C(F)(F)F)cc1	0.01	-0.31
CCO[C@@H]1OC(C(=O)N2CCN(Cc3ccc4c(c3)OCO4)CC2)=C[C@H](C)[C@H]1CCCO	0.09	-0.83
Cc1cccc(OCC(=O)Nc2ccc(C(=O)c3ccc(C(=O)O)cc3)cc2)c1	0.61	-1.7
Cc1oc(C(=O)O)cc1COc1ccc2c3c(c(=O)oc2c1)CCC3	2.8	-3.2
CC1CCCCN1CCCNC(=O)C1CCN(c2nnc(-n3cccc3)s2)CC1 (stereo not given)	0.16	-0.56
O=S(=O)(Nc1ccc2c(c1)OCCO2)c1ccc(F)cc1	0.13	1.2
CCOC(=O)c1cccc(NC(=O)c2cnccn2)c1	0.1	0.85
COc1ccc(C2NCCc3sccc32)cc1 (stereo not given)	0.57	-0.1
Fc1ccc(Nc2c(-c3ccco3)nc3ccccn23)cc1	1.8	-1.6
Cc1noc(C)c1COC(=O)C1CCN(C(=O)c2ccc(Cl)cc2)CC1	1.3	-1
COCCNC(=O)C(c1ccco1)N(C(=O)Cn1nnc2ccccc21)c1cccc(C)c1C (stereo not given)	2.2	0.59
CC(=O)Nc1ccc(/C=C/c2nc(-c3ccccc3O)n[nH]2)cc1	1.3	-0.78
COc1ccc2c(Cl)c(C(N)=O)sc2c1	0.24	1.7
CC(C)CC(C)N1CCC(n2nccc2NC(=O)CCc2ccccc2)CC1 (stereo not given)	0.01	-1.1
CN1CCC(N(C)C(=O)c2sc3cc(F)ccc3c2Cl)CC1	0.01	0.98
c1ccc2sc(NCC3CCCO3)nc2c1 (stereo not given)	0.36	-3
CCOC(=O)C1CCCN(C(=O)/C=C/c2ccc(OC)cc2)C1 (stereo not given)	0.03	1.3
COc1cc(OC)c2ccc(=O)oc2c1C(CCN1CCCC(C)C1)c1ccc(N(C)C)cc1 (stereo not given)	0.02	0.31
CCC(C(=O)NCCc1ccccc1)c1ccccc1 (stereo not given)	0.05	-1.1
CC(C)[C@H](NC(=O)c1ccccc1)C(=O)O	1.5	0.06
CN1CCN(C(=S)NC(=O)/C=C/c2ccccc2)CC1	0.27	0.29
Cc1cccn2c(CN(C)C3CCOC3)c(C(=O)N3CCCCC3)nc12 (stereo not given)	2.2	-0.68
Cc1cccc(C)c1OCc1cc(C(=O)NCC2COCCO2)no1 (stereo not given)	0.5	2
Cc1cccc(NC(=O)C2CC(=O)N/C(=N/N=C/c3ccco3)S2)c1 (stereo not given)	0.73	1.6
O=C(Nc1ccc(N2CCN(C(=O)c3ccccc3)CC2)cc1)c1ccc2c(c1)OCO2	0.36	0.07
CCOc1ccccc1C(=O)NC1CCN(Cc2nnnn2C2CCCC2)CC1	1.4	0.78
COc1ccc(NC(=O)CSCc2ccc([N+](=O)[O-])cc2)cc1OC	0.25	-0.08
CC(=O)Nc1ccc(-c2csc(Nc3cccc(C)n3)n2)cc1	4.6	-1.3
O=C(NC(=S)Nc1ccc(O)cc1)c1ccccc1Cl	0.33	-0.44
O=C(O)c1ccc(CSc2nc(-c3ccccc3)cc(C(F)(F)F)n2)cc1	1.7	-0.02
CCC(=O)NCCc1nc2cc(NC(=O)c3cccs3)ccc2n1C	0.87	2
CCCc1cc(=O)[nH]c(SCc2ccccc2Cl)n1	0.19	0.72
COc1ccc(N2C(=O)C(Cl)=C(Nc3c(C)n(C)n(-c4ccccc4)c3=O)C2=O)cc1	1.1	0.86
Cc1cc(C)cc(NC(=O)CCNC(=O)c2ccc([N+](=O)[O-])cc2)c1	2	0.87
[O-][n+]1ccc(C2CC2)cc1	0.51	0.49
CCN1C(=O)[C@H]2[C@@H](c3ccc(C)cc3)N3C(=O)N(c4cccc(Br)c4)C(=O)[C@@]3(Cc3ccccc3)[C@H]2C1=O	0.88	-0.18
O=c1oc2cc(O)ccc2c2ccccc12	0.86	-0.03
CCCCS(=O)c1snnc1C (stereo not given)	1.4	1.1
CCCCOC(=O)/C(=C/c1cn(C)c2ccccc12)NC(=O)c1ccc(OC)cc1	0.01	-0.59
O=C1NN(c2ccccc2)C(=O)/C1=C\c1ccc2c(c1)OCO2	1.2	0.43
COc1ccc(NS(=O)(=O)c2nnc(NC(=O)c3ccccc3F)s2)cc1	0.89	1.3
CCOC(=O)c1cc(-c2ccc(N3CCOCC3)cc2)nn1-c1ccc(F)cc1F	0.23	-0.56

3 entries drawn at random from those above:
structure	KCNQ2 enhance	KCNQ2 enhance baseline
[O-][n+]1ccc(C2CC2)cc1	0.51	0.49
CCCCS(=O)c1snnc1C (stereo not given)	1.4	1.1
Cc1cc(C)cc(NC(=O)CCNC(=O)c2ccc([N+](=O)[O-])cc2)c1	2	0.87

Additional entries follow:
structure	KCNQ2 enhance	KCNQ2 enhance baseline
CCOc1cc(/C=N/Nc2nc(C)cc(=O)[nH]2)ccc1O	1.4	-0.39
CCS(=O)(=O)c1ccc2c(c1)NC(=O)C(CCO)O2 (stereo not given)	0.04	-1.1
O=C(COC(=O)c1ccccn1)Nc1cccc(Cl)c1	0.22	-1.7
Cc1nn(-c2ccccc2)c(Cl)c1/C=C1\SC(=S)N(CCCCCC(=O)O)C1=O	1.5	-0.45
CCOC(=O)C1CCN(C/C=C/c2ccccc2[N+](=O)[O-])CC1	1.5	-1.1
Cc1ccc(NC(=O)C2CC(=O)n3ncnc3N2)cc1 (stereo not given)	2.1	-0.49
O=C(CSc1ccccn1)N/N=C/c1cccc([N+](=O)[O-])c1	0.28	0.02
COc1ccccc1OC(C)C(=O)NNC(=S)NC1CCCC1 (stereo not given)	0.15	0.05
COc1ccc(NC(=O)COC(=O)c2cc(SC)ccc2Cl)c(OC)c1	0.18	-0.93
CCCCSCCCNC(=O)Nc1ccc(CC)cc1	5.6*	-1.4*
CN(c1ccc(C(=O)N2CCN(Cc3ccccc3)CC2)cc1)S(=O)(=O)c1ccccc1	0.7	0.23
Cc1n[nH]c(C)c1CCCCOc1ccccc1F	0.08	-1.9
CCc1cccc(NC(=S)Nc2ccc(CN3CCOCC3)cc2)c1	0.49	-1.3
NS(=O)(=O)c1cc2c(cc1Cl)NC=NS2(=O)=O	0.94	0
CCN(c1cccc(C)c1)S(=O)(=O)c1ccc2c3c(cccc13)C(=O)N2	3.1	0.08
O=[N+]([O-])c1ccccc1CN1CCN(S(=O)(=O)Cc2ccccc2)CC1	0.01	0.4
COC(=O)C1CCN(C(=O)c2c(-c3ccccc3Cl)noc2C)CC1	1.1	-0.05
O=C1CN(C(=O)COC(=O)/C=C/c2ccco2)c2ccccc2N1	0.37	-0.56
Cc1cc(/C=C(\C#N)C(=O)O)c(C)n1C1CC1	0.7	1.4
OC(COc1ccc2ccccc2c1)CN1CCN(c2ccc(F)cc2)CC1 (stereo not given)	0.82	-1.2
Cc1ccccc1C(=O)NNC(=O)CSc1nc(-c2ccccc2)cc(=O)[nH]1	0.29	0.12
COc1cc([N+](=O)[O-])cc(/C=N/NC(=O)CC#N)c1O	0.05	-0.02
O=C(O)CSCC(=O)c1ccccc1	0.3	-0.02
CCN(CC)S(=O)(=O)c1ccc(N(C)CCc2ccc(OC)c(OC)c2)nc1	0.51	-1.8
Cc1cccc(OCC(O)CN2C(C)(C)CC(O)CC2(C)C)c1C (stereo not given)	1.4	-2.4
Cn1nnnc1SCC(=O)N1CCN(S(=O)(=O)c2ccc(Cl)cc2)CC1	2	-0.04
COc1ccc(Cc2c3cc(OC)c(OC)cc3cc[n+]2C)cc1OC	0.13	-1.1
CCCCn1c(N)c(N(CC(C)C)C(=O)c2ccc(Cl)c(S(=O)(=O)N3CCCC3)c2)c(=O)[nH]c1=O	0.17	-3.8
Cc1ccc(S(=O)(=O)NCCC(=O)OCC(=O)N2CCCC2=O)cc1C	1.2	0.83
C=CCn1c(-c2ccccc2)c[nH]c1=S	0.06	-0.13
O=C(Nc1ccc(F)cc1)N1CCC(c2nc3c(nnn3Cc3ccccc3Cl)c(=O)[nH]2)CC1	1.3	0.16
c1ccc(N2CC[N+]3(CCCC3)CC2)nc1	0.99	-2.8
N#Cc1cnn2ccc(-c3ccc4c(c3)CCC4)nc12	0.71	1.6
CC(C)(CO)NC(=O)C(Cc1ccccc1)N1C(=O)c2ccccc2C1=O (stereo not given)	0.63	-0.07
Cc1sc2nc[nH]c(=O)c2c1-c1ccc(F)cc1	1.1	0.05
CCCCn1c(=O)[nH]c(=O)c2c(C(=O)OCC)cc(-c3ccc(OC(F)F)cc3)nc21	1.6	0.05

3 entries already listed, sorted by molecular weight, low to high.
structure	KCNQ2 enhance	KCNQ2 enhance baseline
COc1cc([N+](=O)[O-])cc(/C=N/NC(=O)CC#N)c1O	0.05	-0.02
Cc1cccc(C)c1OCc1cc(C(=O)NCC2COCCO2)no1 (stereo not given)	0.5	2
CSCCC(Nc1ncnc2ccc(Br)cc12)C(=O)O (stereo not given)	0.97	-0.51

(continued)
structure	KCNQ2 enhance	KCNQ2 enhance baseline
COc1cc(/C=C/C(=O)N2CCN(C)CC2)cc(S(=O)(=O)N2CCc3ccccc32)c1OC	0.49	0.16
O=S(=O)(Nc1nc2cc3c(cc2nc1Cl)OCCO3)c1ccccc1	2.4	0.22
Cc1ccnc(NS(=O)(=O)c2ccc(NC(=O)/C=C/c3cccs3)cc2)n1	1.2	0.68
O=C(C1CCN(S(=O)(=O)c2cccs2)CC1)N1CCCC(C(F)(F)F)C1 (stereo not given)	0.18	-0.9
C/C(CC(=O)Nc1ccc2c(c1)OCO2)=N\NC(=O)c1ccccc1N	1.4	-1.5
CCN(c1ccccc1)S(=O)(=O)c1cc(OC)ccc1OC	2.6	1.7
COc1cccc(CC(NC(C)=O)C(=O)NC2CCN(C(=O)C3CCCCC3)CC2)c1OC (stereo not given)	0.38	0.2
Cc1cc([N+](=O)[O-])c(NCCCCCCO)c([N+](=O)[O-])c1	0.39	-0.6
Cc1cc(C)c(S(=O)(=O)NNC(=O)C2CCN(Cc3ccccc3)CC2)c(C)c1	0.43	-1.2
COC(=O)CSc1nc(NC(C)=O)nc(C)c1Br	1.7	0.01
CCOC(=O)C1=C(C)N(C)C(=O)NC1c1ccccc1OC (stereo not given)	0.21	1.1
Cc1cc(C2=NNC(=Nc3ccc(S(=O)(=O)N4CCOCC4)cc3)SC2)c(C)n1C	0.51	-1.5
COc1cccc(C(=O)Nc2cc(C)nn2-c2ccccc2)c1OC	0.4	1
Cc1noc(C)c1S(=O)(=O)N1CCN(Cc2ccc3c(c2)OCO3)CC1	0.37	0.71
Cc1ccc(S(=O)(=O)CC(=O)N(CCCN2CCOCC2)c2nc3c(F)cccc3s2)cc1	1.1	0.85
CCCCc1ccc(NC(=S)NCCCN2CCOCC2)cc1	0.02	-1.2
CCCC(=O)Nc1ccc(N2CCN(C(=O)CCC)CC2)cc1	1.6	0.37
O=S(=O)(c1ccccc1)c1nc(-c2ccco2)oc1N1CCOCC1	0.03	0.42
CC(C(=O)Nc1ccc(S(=O)(=O)Nc2ncccn2)cc1)N1C(=O)c2ccccc2S1(=O)=O (stereo not given)	0.09	1.8
CCOC(=O)c1nc(C)c(C(C)=O)s1	0.63	0.01
COc1cc(C(=O)NC(CCSC)C(=O)OCC(=O)C(C)(C)C)cc(OC)c1OC (stereo not given)	0.71	-0.18
CCN(Cc1ccncc1)C(=O)c1cc(Br)cc(Br)c1O	1.4	-1.5
O=S(=O)(c1ccc(Oc2ccc(S(=O)(=O)N(CCO)CCO)cc2)cc1)N(CCO)CCO	0.02	-0.54
Cc1ccc(S(=O)(=O)Cc2ccc(C(=O)NCCCN3CCN(C)CC3)o2)cc1	0.19	0
CCN(CC)S(=O)(=O)c1ccc(OC(C)C)nc1	0.18	-0.99
COc1cc(/C=C(\C#N)C(=O)Nc2ccccn2)ccc1O	0.07	-0.55
O=C(O)c1ccc(-c2nc(-c3ccccc3)c(-c3ccccc3)[nH]2)cc1	0.77	0.1
